Assay outcomes (PubChem)
HCMV UL50-53 inh – inhibitors of HCMV UL50-UL53 interaction, biochemical, HTRF | HCMV UL50-UL53 nuclear egress complex (human cytomegalovirus) | normalized percent inhibition | inhibition, % (concentration not given with the values) | 190,000 compounds, 0.15% hits | AID 1918969, 2023;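 active = both replicates at 50% or more, plus weaker picks with an unusually low signal ratio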;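 note: stock transfer was 100 nL into about 20 µL; 0% = negative control wells and 100% = wells with untagged competitor protein; inactives centre near -12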
Sa growth 42C – S. aureus growth inhibition at 42 and 30 °C, primary screen, LtaS inhibitor project, RN4220, two temperatures | OD600, 20 h, 42 °C; active compounds read low | relative growth, % (concentration not given with the values) | 170,000 compounds, 0.53% hits;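 active = growth at 42 °C up to 50% and 20 or more points under that at 30 °C, or under 10% at both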;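 note: 300 nL library stock went into each well; scaled to the means of positive and negative controls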
GIV-Gai inh – inhibitors of GIV peptide binding to Galpha-i3, primary screen, biochemical, fluorescence polarization, FITC-GIV GBA peptide, rat Galphai3 | Guanine nucleotide-binding protein G(i) subunit alpha-3 (Rattus norvegicus), P08753 | 90 min; active compounds read low; scaled: aluminum fluoride 0%, vehicle 100% | percent of control (FP), % (test concentration not listed) | 210,000 compounds, 0.42% hits;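 active = replicate mean at 85% of control or lower, very high polarization wells dropped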;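 note: lower values mean more displacement of the GIV peptide from Galpha-i3; wells of about 15 µL received 100 nL stock; the first replicate is given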
Target sequence (P08753 whole entry, looked up): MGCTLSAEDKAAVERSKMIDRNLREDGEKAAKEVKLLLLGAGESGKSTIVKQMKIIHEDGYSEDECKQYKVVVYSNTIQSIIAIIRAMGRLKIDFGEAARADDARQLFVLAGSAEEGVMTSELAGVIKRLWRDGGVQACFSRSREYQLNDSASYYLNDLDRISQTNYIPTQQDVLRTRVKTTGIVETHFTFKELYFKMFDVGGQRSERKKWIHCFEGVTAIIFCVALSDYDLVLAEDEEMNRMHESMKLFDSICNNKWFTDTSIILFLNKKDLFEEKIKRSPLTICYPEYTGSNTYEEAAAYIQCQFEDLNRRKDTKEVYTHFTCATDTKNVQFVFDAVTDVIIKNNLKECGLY
Sa growth 42C second temp – second read-out of Sa growth 42C, no call of its own (marks repeat the call); relative growth, %; measured here: growth at 30 °C;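 optical density after 20 h as mean of two plates; 100% = untreated growth and lower means inhibition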
Numbers without * were called inactive; . = not tested or not shown; & = joins results of further samples.

smiles	Sa growth 42C	Sa growth 42C second temp	GIV-Gai inh	HCMV UL50-53 inh
O=c1cc[nH]c2c(Cl)c(Cl)ccc12	88	89	.	-16
NNc1nc(NN)nc(Nc2cccc(C(F)(F)F)c2)n1	77	36	.	-15
COCc1cc(C)n(CC(=O)Nc2ccc(NC(C)=O)cc2)c(=O)c1C#N	92	97	100	5
COc1cc(C(=O)N2CCN(CCc3ccccn3)CC2)cc(OC)c1OC	95	82	96	-22
NNC(=O)C(O)c1ccc(Cl)cc1 (stereo not drawn)	107	111	104	-3
CCC(C)NC(=O)CN1C(=O)C2CCCC2=Nc2cc(C)c(C)cc21 (stereo not drawn)	.	.	103	-24
CCC(C)NC(=O)CCn1c(=O)sc2ccccc21 (stereo not drawn)	102	87	103	-11
Cc1cc(C)c2c(c1)CC(C)(C)c1[nH]c(-c3ccccc3)nc1-2	83	50	95	-21
COC(=O)C(C)NC(=O)C12CC3(C)CC(C)(CC(C)(C3)C1)C2 (stereo not drawn)	99	82	94	.
COc1cccc2cc(-c3nc4ccccc4[nH]3)c(=N)oc12	90	59	99	-42
CC(c1ccco1)N(C(=O)COc1ccc(Cl)cc1)c1ccccn1 (stereo not drawn)	97	87	.	-28
O=C(CCn1cnc2ccccc2c1=O)NC1CCCc2ccccc21 (stereo not drawn)	.	.	101	-10
O=C(NCCc1csc(-c2cccc(F)c2)n1)c1cccs1	89	81	107	.
NC(=S)c1ncc(C(F)(F)F)cc1N1CCCC1	103	84	104	-40
N#Cc1c(C(F)(F)F)c2c([nH]c1=S)CCCC2	50	55	.	-44
O=C(NCc1ccco1)c1ccsc1	88	89	101	-125
CCn1c(SC(C)C#N)nnc1-c1cccs1 (stereo not drawn)	97	94	.	-23
COc1ccc(NC(=O)COC(=O)C2CC3C=CC2C3)cc1 (stereo not drawn)	94	93	.	-18
Cc1cc2oc(C(=O)N(Cc3ccc(N(C)C)cc3)CC3CCCO3)c(C)c2cc1Cl (stereo not drawn)	114	89	105&109	-7&2
CCOC(=O)C1CCCN(C(=O)c2ccc(NC(=O)N3CCSc4nc(C)cc(C)c43)cc2)C1 (stereo not drawn)	.	.	104	0
CCOC(=O)c1noc2ncn(CC(=O)Nc3cccc(Cl)c3)c(=O)c12	95	92	103	.
Cc1ccc2onc(CNC(=O)NCCCN3CCN(c4cc(Cl)ccc4C)CC3)c2c1	.	.	104	-4
COc1ccccc1CNC(=O)c1ccc(CSc2nc3ccncc3n2Cc2ccc(F)cc2)cc1	.	.	100	-2
Cn1ncc2c(N3CCN(c4ccccc4)CC3)ncnc21	105	80	98	-16
CCSc1nc2ccccc2c(=O)n1CC1CCCCC1	84	85	103	-15
COc1ccc(CCNC(=O)CN(c2ccccc2OC)S(=O)(=O)c2ccc(C)cc2)cc1	100	89	104	-24
COc1cccc(NC(=O)Cn2cc(C(=O)c3ccco3)c3ccccc32)c1	85	85	102	-24
CCOc1ccc(CNC(=O)C2CCCN(c3nn4cc(-c5ccc(F)cc5)nc4s3)C2)cc1 (stereo not drawn)	110	80	101	.
C=CCNC(=O)c1cc2c(=O)n3cccc(C)c3nc2n(CCN2CCOCC2)c1=N	108	109	104	-40
COc1nccc(C(F)(F)F)c1C(N)=O	103	72	104	-2
CCOC(=O)c1c(C)[nH]c(C)c1S(=O)(=O)N1CCC(C(=O)Nc2ccc(C)cn2)CC1	117	88	112&104	-7
CCc1c(C)sc2c1CCN(C(=O)Nc1ccccc1C(=O)OC)C2c1ccc(OC)cc1 (stereo not drawn)	89	86	104	.
Cc1oc(-c2ccccc2)nc1C(=O)OCC(=O)Nc1ccnn1C(C)C	100	93	.	-5
CCc1nc2ccc(NC(C)=O)cc2c(=O)n1Cc1ccccc1	122	96	104	-3
CC(C)OCCCn1c(=O)c2cc(Cl)ccc2n2c(SCc3ccccc3Cl)nnc12	.	.	98	2
CCC1(CC)Cc2ccccc2-c2[nH]c(=O)n(CC3=CCCO3)c(=O)c21	.	.	110	-2
COc1ccccc1N1CCN(C2=Nc3cccc4cccc2c34)CC1	88	67	.	-74
CCOC(=O)c1c(Cc2ccc(Cl)cc2)c[nH]c1C	83	90	107	-25
COc1ccc(C(=O)Nc2ccccc2SCc2cc(=O)c3cccc(C)c3[nH]2)cc1	74	85	106	.
COC(=O)c1ccc(NC(=O)CC(C)CC(=O)O)cc1 (stereo not drawn)	97	93	103	-12
N#CCOc1nc(N2CCCCC2)nc(N2CCCCC2)n1	87	102	.	14
Cc1c(-c2ccnn2S(C)(=O)=O)sc2ccccc12	107	89	105	-2
Cc1cccn2c(=O)c3cc(C(=O)NCCN4CCOCC4)c(=N)n(CCCN4CCOCC4)c3nc12	99	97	107	-42
O=C(O)c1cnn2c(C(F)(F)F)cc(-c3ccco3)nc12	89	89	105	.
O=C(Nc1csnc1-c1c(Cl)cccc1Cl)NN1CCCCC1	113	85	98	-28
CCOC(=O)c1c(NC(=O)COc2ccc(Cl)cc2)sc(C(=O)Nc2ccccc2C)c1C	.	.	99	-26
CCOc1nc(OCC)nc(N2CCC(C)CC2)n1	65	80	99	-6
CCC(O)(c1ccccc1)c1ccccc1N (stereo not drawn)	89	91	100	-19
COc1cccc(C(c2cc3c(cc2O)OCO3)N2CCCC2)c1O (stereo not drawn)	1.2*	-0.5*	.	8
Cc1cnc(C(=O)Nc2ccc(C(=O)N(C)C3CCCCC3)cc2)cn1	100	111	101	10
CCc1ccccc1NC(=O)Nc1ccc2snnc2c1	92	55	104	3
CSc1nc2sc3c(c2c2nncn12)CCC(C(C)(C)C)C3 (stereo not drawn)	81	85	103	.
O=C(O)C1CCCCC1C(=O)Nc1ccccn1 (stereo not drawn)	101	92	100	3
O=C(O)c1cc(O)ccc1-c1ccc(O)cc1	104	92	101	-3
COc1ccc(C(=O)CSc2nnc(C)n2Cc2ccccc2)cc1OC	46	22	.	-16
CCC(C)NC(=O)c1noc2c1COc1ccccc1-2 (stereo not drawn)	.	.	99	-1
COc1cccc(-c2cc(C(=O)Nc3cc(OC)c(OC)c(OC)c3)on2)c1	87	88	104	.
CCn1c(C(=O)N2CCCC(C(=O)N3CCN(c4ccccc4)CC3)C2)cc2sccc21 (stereo not drawn)	109	81	103	-2
Cc1ccc(CS(=O)Cc2ccc(C(=O)N3CCN(Cc4ccccc4)CC3)o2)cc1 (stereo not drawn)	109	87	105	.
COc1ccc(NC(=O)N2CCN(c3cc(-c4noc(C)n4)ccc3C)CC2)c(OC)c1	103	100	113	.

Next part.
smiles	Sa growth 42C	Sa growth 42C second temp	GIV-Gai inh	HCMV UL50-53 inh
COc1cc(NC(=O)C(F)(F)F)c(OC)cc1Br	87	104	106	-30
O=C(Nc1cc(F)ccc1F)C1(c2ccc(F)cc2)CCCC1	115	92	.	6
CCN(C(=O)CSc1nc2ccccc2n1CC(=O)N1CCCC(C)C1)c1ccccc1 (stereo not drawn)	109	100	101	.
Cc1cc(C)c(C#N)c(SCC(=O)NCC2CCCCC2)n1	77	98	.	14
CC(C)CC(=O)Nc1cccc(-c2nc3ccccc3[nH]2)c1	107	90	106	2
CC1CCCC(C)N1CCNc1nc2ccccc2c2nc(-c3ccccc3)nn12 (stereo not drawn)	99	90	101	.
COc1ccc(OCCCn2c(=O)oc3ccc(C)cc32)cc1	102	90	110	19
CCc1ccc(-n2c(=O)c3c4c(sc3n(Cc3ccccc3C#N)c2=O)CCC4)cc1	95	103	104	2
Cc1nn(-c2ccccc2)c2sc(C(=O)NN3C(=O)c4ccccc4C3=O)cc12	91	91	97	-18
Cc1ccc(-c2cccc(NC(=O)C3C4C=CC(C4)C3C(=O)O)c2)o1 (stereo not drawn)	185	86	.	-53
Cn1cc(C(c2ccccc2)c2ccc(Cl)s2)c2ccccc21 (stereo not drawn)	118	91	105	-19
Cc1ccc(S(=O)(=O)N2CC=C(C(=O)NCc3ccccc3)CC2)cc1	107	96	104	-22
NC(=O)C1CCN(c2ncnc3onc(-c4ccc(F)cc4)c23)CC1	93	78	106	-16
O=C(c1ccncc1)c1c[nH]c2ccc(F)cc2c1=O	.	.	107	-4
O=C(/C=C/c1ccccc1)OCC(=O)c1cc2ccccc2o1	94	102	.	16
COc1ccc2c(c1)c(=O)c(S(=O)(=O)c1ccc(Cl)cc1)cn2Cc1cc(C)ccc1C	104	91	109	-12
O=C(CNc1ccc(Cl)c(C(F)(F)F)c1)Nc1ccc(N2CCOCC2)cc1	115	102	.	-3
Cn1nc(C(=O)Nc2nccs2)ccc1=O	113	84	.	-38
O=C1CSC2(CCCCC2)N1Nc1ccccc1	102	88	.	-14
CC(C)C(NC(=O)c1ccccc1)C(=O)N1CCN(C/C=C/c2ccccc2)CC1 (stereo not drawn)	100	111	.	16
COc1ccc(NS(=O)(=O)c2c(C)nc3sccn3c2=O)cc1Cl	113	94	108	.
CSc1nc2c(=O)n(C)c(=O)n(C)c2n1C	83	84	103	-42
O=C1COc2ccc(C(=O)NCC3CCCO3)cc2N1 (stereo not drawn)	.	.	97	1
Cn1nnc2c(NCC(=O)C(C)(C)C)nc(Cc3ccc(Cl)cc3Cl)nc21	109	91	106	.
O=C(O)/C=C1\C(=O)Nc2ccccc21	134	93	.	1
Cc1cc(C)n(Cc2c(F)cccc2Cl)c(=O)n1	90	87	102	-15
CN(C(=O)Cn1c(=O)n(Cc2ccc(C(=O)NCc3ccco3)cc2)c(=O)c2sccc21)c1ccccc1	106	80	103	-7
Cc1c(Cl)cccc1NC(=O)COCc1cc(-c2ccc3c(c2)OCO3)on1	82	97	105	.
O=C(Cn1cnc2c(nc3n2CCCCC3)c1=O)Nc1ccc(F)c(Cl)c1	86	75	106	.
C=C(C)COc1ccc(/C=C(/NC(=O)c2ccccc2)C(=O)O)cc1OC	87	93	98	.
O=C(Nc1ccccc1F)C1CCC(=O)N1S(=O)(=O)c1ccc(F)cc1 (stereo not drawn)	.	.	103	0
O=C1CC(c2cn(Cc3ccccc3)c3ccccc23)C(=O)N1c1ccc(O)cc1 (stereo not drawn)	.	.	106	-6
CCOC(=O)N1CCN(S(=O)(=O)c2ccc(C(=O)Nc3nc4c(C)cc(C)cc4s3)cc2)CC1	.	.	104	7
O=C(NCCn1c(C(F)(F)F)nc2cccnc21)C1CCCCC1	.	.	99	4
CCOc1c(Br)cc(C(=O)OCc2nc(N)nc(Nc3ccccc3)n2)cc1OC	83	98	.	-1
Cc1c(NS(=O)(=O)c2ccc(Br)cc2)c(-n2cnnc2)nn1C	.	.	97	-22
Cc1ccc(Sc2c(C)nn(C(=O)c3ccc(Cl)cc3)c2C)cc1	106	98	110	-1
N#Cc1ccc(-c2ccc(C#N)cc2)cc1	108	98	106	5

Some of these compounds in order of molar mass, descending:
smiles	Sa growth 42C	Sa growth 42C second temp	GIV-Gai inh	HCMV UL50-53 inh
CN(C(=O)Cn1c(=O)n(Cc2ccc(C(=O)NCc3ccco3)cc2)c(=O)c2sccc21)c1ccccc1	106	80	103	-7
Cc1c(Cl)cccc1NC(=O)COCc1cc(-c2ccc3c(c2)OCO3)on1	82	97	105	.
O=C1CC(c2cn(Cc3ccccc3)c3ccccc23)C(=O)N1c1ccc(O)cc1 (stereo not drawn)	.	.	106	-6
O=C(Cn1cnc2c(nc3n2CCCCC3)c1=O)Nc1ccc(F)c(Cl)c1	86	75	106	.
C=C(C)COc1ccc(/C=C(/NC(=O)c2ccccc2)C(=O)O)cc1OC	87	93	98	.
Cc1ccc(Sc2c(C)nn(C(=O)c3ccc(Cl)cc3)c2C)cc1	106	98	110	-1
